D2 potentiator: potentiates the human D2 dopamine receptor allosterically. DiscoveRx D2 beta-arrestin cells, luminescence, 90 min; 100% = 57 uM dopamine signal. potentiation, % (test concentration not listed). actives 0.23% (n = 360,000); active = potentiation of 50% or more; inconclusive = 30% to 50%; inactive = 30% or less;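 further: compound concentration not given in the record; tested on top of an EC20 dose of dopamine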
Target sequence (P14416 whole entry, looked up): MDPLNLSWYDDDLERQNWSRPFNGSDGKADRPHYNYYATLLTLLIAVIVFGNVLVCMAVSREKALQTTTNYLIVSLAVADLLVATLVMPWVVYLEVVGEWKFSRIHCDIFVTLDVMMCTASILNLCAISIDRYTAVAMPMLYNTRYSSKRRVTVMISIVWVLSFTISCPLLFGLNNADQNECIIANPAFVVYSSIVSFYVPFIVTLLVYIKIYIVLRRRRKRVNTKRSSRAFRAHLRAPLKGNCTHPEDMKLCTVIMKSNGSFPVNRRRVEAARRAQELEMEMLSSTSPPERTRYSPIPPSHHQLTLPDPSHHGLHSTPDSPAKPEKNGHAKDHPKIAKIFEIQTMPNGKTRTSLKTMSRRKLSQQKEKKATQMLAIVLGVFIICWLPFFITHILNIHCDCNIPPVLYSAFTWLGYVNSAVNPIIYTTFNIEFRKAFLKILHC
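PathHunter D2 cells, attached overnight at 37 deg C, received compound in DMSO plus dopamine at EC20 (50 nM final) for 90 min at 37 deg C. Beta-arrestin recruitment was read as luminescence after 1 h with detection reagent at ambient temperature.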
TRPV1 potentiator: potentiators of human vanilloid receptor 1 (TRPV1); Q8NER1; TRPV1-expressing cells, Fluo-8 calcium influx, capsaicin EC20 potentiation; host cell line not named in the record; control for the full effect not named in the record; potentiation, % at 8.33 µM; actives 0.02% (n = 320,000); AID 540277; active means potentiation above 80%; inconclusive means 30% to 80%; inactive means below 30%; further: 0% is about no effect
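TRPV1-expressing cells were cultured overnight at 35.5C and loaded with Fluo-8 calcium dye for 40 to 90 min at room temperature. After a 10 s baseline, compound was added and calcium influx was read kinetically for 3 min (ex 480/em 520 nm).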
PINK1 expr mod: modulators of PINK1 expression; PINK1 immunofluorescence, high-content cytometry, 24 h; Potency, µM (series often up to 76.6 µM), without a hit: at the top dose activation (PINK1 increase), hits mostly activators; actives 0.2% (n = 410,000); AID 624263; active = well fitted activation curve with a large enough effect; inconclusive = small, poorly fitted or top-dose-only effect; inactive = flat fitted curve, though single readings scatter; cell line not stated here;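 further: potency means the concentration at half of the fitted maximal effect; % of control where 0% means no effect; nearly all actives have a fitted effect of over 65% in size; a mitochondrial uncoupler was the plate control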
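Decision-based qHTS: stable cells, 24 h exposure to five compound concentrations, CCCP as control. Fixed cells stained for PINK1 plus nuclear, mitochondrial and cell markers, cytometer read.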
CtBP-E1A inh: blocks the CtBP interaction with E1A; actives 0.49% (n = 340,000); AlphaScreen GST-E1A/His-CtBP binding, 1536-well; active compounds read low; control for the full effect not named in the record; activity change, % (concentration not given with the values); in the data active means activity change below about -65%; inconclusive means about -30% to -65%; inactive means above about -30%; further: on the % scale 0 is the no-effect control and ±100 the full control effect
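In 5 uL wells, 23 nL compound meets equimolar GST-E1A and His-CtBP (5X stock 125 nM each) for 2 h, 37 °C. Beads (5X, 50 ug/mL) then 1 h, 37 °C, dark.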
Six1-Eya2 inh: Six1/Eya2 interaction inhibition; Q15475+O00167; AlphaScreen GST-Six1/His-Eya2 binding, biochemical; active compounds read low; control for the full effect not named in the record; activity change, % (no concentration beside the values); actives 0.56% (n = 360,000); AID 651725; in the data active = activity change below about -65%; inconclusive = about -30% to -65%; inactive = above about -30%; further: on the % scale 0 is the no-effect control and ±100 the full control effect
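Six1/Eya2 binding was read as AlphaScreen signal after compounds were pinned into GST-Six1 plus His-tagged Eya2 (5X stock 250/500 nM) in pH 8.0 Tris/NaCl/TCEP buffer, beads added, then incubated 1 h, 37 C, dark.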
Sfp PPTase inh: inhibitors of Bacillus subtilis Sfp phosphopantetheinyl transferase. Q9F4F7. Biochemical Sfp PPTase activity, qHTS. Potency, µM, without a hit: max response, negative = inhibition, usual class: inhibitors. actives 3.5% (n = 310,000). AID 1490; active means well fitted inhibition curve with a large enough effect; inconclusive means small, poorly fitted or top-dose-only effect, or another doubt; inactive means no such curve, though single readings can be large or run the other way;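 further: the enzyme is Sfp with the accession as filed and its product quenches rhodamine fluorescence; potency means the concentration at half of the fitted maximal effect; 0% = enzyme reaction without inhibitor and -100% = no enzyme wells; top concentration of the series not given in the record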
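Step 1, compound plus 15 nM Sfp-PPTase, 15 min, room temperature. Step 2, add rhodamine-CoA (5 uM) and BHQ-2-YbbR (12.5 uM). Step 3, read 525/598 nm fluorescence at 0 and 30 min.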
D2 agonist: activates the human D2 dopamine receptor; activation, % (concentration not given with the values); AID 624465; DiscoveRx PathHunter D2 beta-arrestin, luminescence, 90 min; 100% = 57 uM dopamine signal; actives 0.084% (n = 360,000); in the data active = activation above about 40%; inconclusive = about 15% to 40%; inactive = below about 15%; further: compound concentration not given in the record; the text of the record calls up to 30% inactive
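DiscoveRx PathHunter D2 beta-arrestin cells (2,100/well) attached overnight, then compound-stimulated 90 min at 37 C in HBSS/10 mM HEPES/0.1% Tween-20 buffer; beta-galactosidase complementation read by luminescence after 1 h at ambient temperature. Dopamine 57 uM final (EC100) as control.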
Numbers without * were called inactive; ? = inconclusive; . = no result given; [ ] = remark or other dose.

Fields – D2 potentiator | TRPV1 potentiator | PINK1 expr mod | CtBP-E1A inh | Six1-Eya2 inh | Sfp PPTase inh | D2 agonist
COc1cc(OC)c(NC(=O)CCNS(=O)(=O)c2cc(Br)cnc2N)cc1Cl
 : -6 | 6 | 2.1% | -8 | -11 | 3% | -12
COc1cccc(/C=N/NC(=O)C(=O)NCc2ccco2)c1O
 : 2 | -11 | -0.2%[38.3 µM] | -97* | -89* | 17% | -0.1
CNC(=O)C12CC3CC(CC(Cl)(C3)C1)C2
 : -12 | 4 | 0.0% | 2 | 1 | -9% | -1.7
Cn1c(=S)[nH]c(=O)c2ncc(=O)[nH]c21
 : -11 | 3 | -0.5% | 7 | 0 | 71µM* | -0.9
CCOc1ccc(CN=C(N)N=C(N)N)cc1Cl
 : -1 | -3 | 0.7% | 2 | 4 | -1% | 2.8
OCCOCCOc1cccc2[nH]ccc12
 : -16 | 2 | 0.4% | -12 | 1 | 22% | -1.3
O=C(CSc1ncccn1)NN=C1CCCCCC1
 : 24 | 3 | 1.4% | 7 | 8 | 1% | 1.6
O=C1N=C(N2CCN(c3ccccc3)CC2)S/C1=C/c1cccs1
 : -21 | 3 | 1.3% | -3 | -24 | -3% | -1.6
O=C(CNS(=O)(=O)c1cccs1)N1CCCCC1
 : -2 | -13 | 1.8% | -2 | 10 | 4% | 4.9
O=C(NCCOc1ccccc1)C(c1ccccc1)c1ccccc1
 : -21 | -6 | 0.9% | . | 4 | 2% | -7.3
CC(Oc1cc(Cl)ccc1Cl)C(=O)N/N=C\c1ccnn1C (stereo not given)
 : -13 | -23 | 0.4% | -15 | 0 | 29% | -3.0
O=C(Nc1ccc2c(c1)OCO2)c1ccc(=O)[nH]n1
 : 0 | -6 | -1.0% | 5 | -3 | -6% | 1.8
COc1ccc(CCNC(=O)C2CCN(C(=O)c3ccc(C(C)(C)C)cc3)CC2)cc1OC
 : -4 | 3 | -1.2% | -10 | -1 | 8% | -5.1
CC(C)N1CC(O)=C(c2ccccc2)C1=N
 : -7 | 25 | -3.7%[38.3 µM] | 12 | 8 | 6% | -0.9
CCOC(=O)C1=C(c2ccccc2)NC(SC)=C(C#N)C1c1ccco1 (stereo not given)
 : -7 | 1 | ? | 0 | -4 | 0% | -1.3
O=C(Cn1nc(-c2ccc(Cl)cc2)ccc1=O)NCCCN1CCN(Cc2ccccc2)CC1
 : -26 | 11 | 2.6% | 4 | -16 | 6% | -1.2
CCN(CC)C(=O)c1sc(NC(=O)Cc2ccccc2)c(C#N)c1C
 : -2 | -4 | 1.0% | 0 | 3 | -1% | -1.1
O=C(CN(Cc1ccco1)C(=O)c1nsc(Cl)c1Cl)NC1CCCCC1
 : -9 | 1 | 0.3% | -10 | 5 | 8% | -4.1
COc1ccc(NC(=O)CCCn2c(=O)c3sccc3n(Cc3cccc(C)c3)c2=O)cc1
 : 17 | 22 | ? | 4 | 2 | 4% | -0.3
CC(C)COC(=O)C1C(=O)CC(C)(O)C(C(=O)OCC(C)C)C1c1cccnc1 (stereo not given)
 : -4 | -11 | 2.7% | 3 | -5 | 6% | -2.4
O=C(C(=O)N1CCc2ccccc2C1)c1cn(CC(=O)N2CCOCC2)c2ccccc12
 : -18 | -3 | -0.6% | 1 | -2 | -14% | -0.7
COc1ccccc1NC(=O)NC(=O)c1ccccc1
 : -4 | 10 | 3.3% | 4 | 5 | 2% | 0.5
CCc1nc(N)c(C#N)c(-c2cccc3ccccc23)c1C
 : 14 | 3 | -0.4% | 3 | 0 | 13% | -1.2
COCCCn1c(SCC(=O)N2CCOCC2)nnc1-c1ccco1
 : 2 | 4 | 1.2% | 5 | 0 | 27% | -0.8
COc1ccc(C(=O)Nc2ccc3[nH]ccc3c2)cc1OC
 : -5 | . | 8.4% | -3 | -1 | . | 0.7
Cc1nn(CC(=O)NCc2ccccc2)c(C)c1[N+](=O)[O-]
 : -9 | -6 | 3.2% | 4 | 0 | -1% | 0.6
CCOc1cccc(SCc2noc(C(=O)NC(C)C)c2C(=O)O)c1
 : -2 | 0 | 2.6% | 2 | 2 | 11% | -7.5
N#CCn1c(Cc2ccccc2)nc2ccccc2c1=O
 : -1 | -3 | 0.6% | . | -4 | 18% | -5.4
Cc1ccc(C(C(=O)NC(C)(C)C)N(Cc2cccnc2)C(=O)C(=O)NC2CCCCC2)o1 (stereo not given)
 : 1 | 11 | 1.9% | -14 | 4 | 10% | -2.9
O=C(NCCCNCc1ccccc1)c1ccc(/C=N/O)nc1
 : -9 | 5 | -3.2% | ? | ? | 3% | -1.3

Laid out differently: entries from further up.
SMILES: O=C(Nc1ccc2c(c1)OCO2)c1ccc(=O)[nH]n1
  D2 potentiator = 0 | TRPV1 potentiator = -6 | PINK1 expr mod = -1.0% | CtBP-E1A inh = 5 | Six1-Eya2 inh = -3 | Sfp PPTase inh = -6% | D2 agonist = 1.8

SMILES: CCOC(=O)C1=C(c2ccccc2)NC(SC)=C(C#N)C1c1ccco1 (stereo not given)
  D2 potentiator = -7 | TRPV1 potentiator = 1 | PINK1 expr mod = ? | CtBP-E1A inh = 0 | Six1-Eya2 inh = -4 | Sfp PPTase inh = 0% | D2 agonist = -1.3

The list continues:
Fields – D2 potentiator | TRPV1 potentiator | PINK1 expr mod | CtBP-E1A inh | Six1-Eya2 inh | Sfp PPTase inh | D2 agonist
C=CCOc1cccc(C2C(C(=O)c3cc4ccccc4o3)=C(O)C(=O)N2c2cc(C)on2)c1 (stereo not given)
 : -9 | 1 | 5.9% | . | -12 | 15% | 2.7
COc1ccc(C2(c3ccc(OC)cc3)NC(=O)N(CC(=O)N3CCOCC3)C2=O)cc1
 : 0 | 9 | -1.1% | 1 | -2 | . | -3.8
CCCN(CCC)Cc1c(C(=O)N/N=C/CCc2ccccc2)nnn1-c1nonc1N
 : -6 | 3 | 0.1% | -5 | -1 | ? | 2.1
Cc1ccc(C(C)C)c(OCC(=O)Nc2ccccc2N2CCN(C)CC2)c1
 : -8 | -11 | -0.4% | -22 | -23 | ? | 2.5
COc1ccc(NS(=O)(=O)c2ccc(C)c(C(=O)NNC(=O)c3csc(N4CCOCC4)n3)c2)cc1
 : -32 | 5 | 1.3% | 8 | -5 | . | -1.5
Cc1occc1C(=O)Nc1ccc2c(c1)OCCO2
 : -2 | -4 | 17%[38.3 µM] | 4 | -1 | ? | -2.7
COc1ccc(-c2ccc3c(c2)S(=O)(=O)c2cccc(C(=O)NCc4cc(C)oc4C(F)(F)F)c2C3=O)cc1OC
 : -1 | . | 14% | -2 | -13 | . | 1.1
C/C=C(\C)C(=O)NCCN1C2=NC[C@H](Cc3ccc(O)cc3)N2C[C@H]1Cc1ccc(O)cc1
 : -15 | 16 | 0.1% | 2 | -3 | 2% | -2.0
CCOC(=O)c1cc(C(C)(C)C)oc1CN
 : 23 | 15 | -0.9% | 4 | 1 | 5% | -1.7
Cc1ccc(NC(=O)NC2CC(=O)N(c3ccc4c(c3)OCCO4)C2)cc1C (stereo not given)
 : -3 | -10 | -3.6% | -2 | -1 | . | 4.4
CN1CCS/C1=C\C=C1/SC(=S)N(CC(=O)O)C1=O
 : -17 | -6 | 4.5% | -16 | -2 | -1% | -7.2
CCC(C)(NC(=O)c1ccccc1)C(=O)O (stereo not given)
 : -12 | 5 | 8.3% | 1 | 23 | 15% | 0.0
COc1ccc(OC)c(CN2CCN(C(=O)c3cc4ccccc4cc3O)CC2)c1
 : -33 | 12 | 1.5% | -6 | -30 | 5% | 2.8
O=C1c2cc(Cl)ccc2-c2c(O)cc(Cl)cc21
 : -10 | . | ? | -14 | -14 | . | 12
CCOC(=O)[C@]12CCC=C1N(CCC1=CCCCC1)C(=O)[C@H](CC(=O)NCCCN1CCCC1=O)C2
 : . | . | 1.8% | -3 | 4 | . | .
Cc1ccc(-c2nn(-c3ccccc3)cc2C(=O)Nc2cccc(S(=O)(=O)NC3=NCCC3)c2)cc1
 : -18 | . | 1.7% | -13 | -13 | . | 0.1
Oc1ccc(/C=N/n2c(COc3ccccc3)n[nH]c2=S)cc1O
 : 5 | -2 | -1.7% | -9 | 13 | 56µM* | -5.6
COCC1CCN(C(=O)c2cc(COc3cccc4cnccc34)on2)CC1
 : -11 | -11 | -0.5% | 0 | -1 | 12% | 3.3
CC(C)CCNc1nc(N)c([N+](=O)[O-])c(N2CCCCCC2)n1
 : -7 | -2 | 7.5% | . | -22 | 5% | 6.8
CCOC(=O)N1CCN(C(=O)CNC(=O)c2ccccc2F)CC1
 : -4 | . | 1.5% | 1 | -6 | . | -0.7
COc1cccc(NC(=O)CN2CCN(c3ccc(F)cc3)CC2)c1
 : -15 | -1 | -0.5% | ? | -15 | 13% | -2.2
COc1ccc(C2CC(=O)C=C(NNS(=O)(=O)c3ccc(C)cc3)C2)cc1 (stereo not given)
 : -2 | 25 | 1.6% | 8 | 3 | -7% | -4.1
O=C(O)CCC(=O)N1N=C(c2c(-c3ccccc3)c3cc(Cl)ccc3[nH]c2=O)CC1c1ccccc1 (stereo not given)
 : -1 | 2 | 1.5% | 1 | -10 | 22% | -3.8
CSc1nc(N)nc2c1ncn2CC(=O)NCC(c1ccccc1)c1ccccc1
 : . | . | -0.7% | -23 | 4 | . | -0.3
CCCCS(=O)(=O)N1CCCC(C(=O)Oc2ccc(Cl)cc2)C1 (stereo not given)
 : -13 | -19 | 0.9% | 2 | -19 | 24% | -4.4
N/C(=N\NC(=O)c1ccc(F)cc1)c1cc2ccccc2oc1=O
 : -2 | -4 | 3.1% | . | 4 | 4% | -0.6

Shown as a hit in Six1-Eya2 inh (from the list above):
Compound	D2 potentiator	PINK1 expr mod	CtBP-E1A inh	Six1-Eya2 inh	Sfp PPTase inh	D2 agonist
COc1cccc(/C=N/NC(=O)C(=O)NCc2ccco2)c1O	2	-0.2%[38.3 µM]	-97*	-89*	17%	-0.1

Some of these compounds in order of molar mass, ascending.
Fields – D2 potentiator | TRPV1 potentiator | PINK1 expr mod | CtBP-E1A inh | Six1-Eya2 inh | Sfp PPTase inh | D2 agonist
O=C1c2cc(Cl)ccc2-c2c(O)cc(Cl)cc21
 : -10 | . | ? | -14 | -14 | . | 12
COc1cccc(NC(=O)CN2CCN(c3ccc(F)cc3)CC2)c1
 : -15 | -1 | -0.5% | ? | -15 | 13% | -2.2
O=C(O)CCC(=O)N1N=C(c2c(-c3ccccc3)c3cc(Cl)ccc3[nH]c2=O)CC1c1ccccc1 (stereo not given)
 : -1 | 2 | 1.5% | 1 | -10 | 22% | -3.8
